A1 inh = inhibitors of the anti-apoptotic protein A1, read as caspase activation; caspase activation, % (no concentration beside the values); MEF A1-2A-BIM cells, Caspase-Glo 3/7 luminescence, 3 h; percent of clofoctol response, vehicle zero; hit rate 0.066% among 330,000;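 active means over half of replicate activation scores above 10%, or exactly half above 10 with the replicate mean above 10; inconclusive means replicate mean below 10 yet half the replicates above 10; inactive means over half of replicates below 10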;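 further: wells of about 30 µL received 50 nL stock; many hits fall short of the cut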
ALR H2O2 inh = inhibitors of human sulfhydryl oxidase ALR; AID 485317; inhibition, % (no concentration beside the values); purified ALR, DTT oxidation, H2O2 HRP-luminol luminescence; hit rate 3.8% among 290,000;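 active means mean and each replicate at 75% or more; inconclusive means only one of the two met; inactive means neither met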;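 further: stock transfer was 7.5 nL into about 7.5 µL; 0% = neutral wells and 100% = wells with inactivated enzyme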
Target sequence (P55789 whole entry, looked up): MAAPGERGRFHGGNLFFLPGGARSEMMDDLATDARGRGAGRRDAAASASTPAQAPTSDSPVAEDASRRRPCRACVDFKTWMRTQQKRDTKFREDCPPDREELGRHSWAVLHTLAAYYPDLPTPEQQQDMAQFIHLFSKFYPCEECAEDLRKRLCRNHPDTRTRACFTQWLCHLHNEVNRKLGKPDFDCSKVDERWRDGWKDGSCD
Beta apoptosis = blocks beta cell apoptosis. INS-1E cytokine-induced death, ATP luminescence, 48 h; percent of positive-control rescue, neutral wells zero. hit rate 0.8% among 300,000. AID 435005. protection from apoptosis, % (no concentration beside the values);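 active means all replicates at 75% or more, or half of them and the mean; inconclusive means half reach 75% but not the mean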;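 further: 0% = cytokine-treated negative control wells and 100% = positive control rescue; higher means more ATP so stronger rescue from cytokine killing; wells of about 40 µL received 100 nL stock; the first replicate is given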
Calb FLC = affects C. albicans growth with fluconazole; C. albicans CaCi-2 (fluconazole-resistant clinical isolate) + fluconazole, Alamar Blue growth, 48 h; growth inhibition, % (no concentration beside the values); hit rate 0.57% among 300,000;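 active means most replicates above 75%; inconclusive means exactly half above 75%; inactive means most below 75%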;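 further: all wells also contain fluconazole at 8 µg/ml as a sub-toxic cotreatment; 0% = median of DMSO wells and 100% = median of geldanamycin control wells; wells of about 8 µL received 7.5 nL stock; the first replicate is given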
Ecoli rRNA inh = inhibits bacterial ribosomal RNA function over humanized ribosomes; GFP signal change (wild-type ribosome), % (test concentration not listed); E. coli WT GFP vs humanized-ribosome RFP mutants, fluorescence, 24 h; active compounds read low; DMSO median 0, no signal -100; hit rate 1.6% among 350,000;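 active means significant combined selectivity score with lowered wild-type GFP, culture density cut under 30%, mutant RFP and density less affected; inactive means any of these conditions unmet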; further: one replicate is shown; some compounds called inactive have numbers as strong as hits
Beta2AR agonist = human beta-2 adrenergic receptor agonism by FAP; Am2.2-beta2AR cells, FAP receptor internalization, flow cytometry; reference of the scale not given here; response, % (test concentration not listed); hit rate 0.43% among 340,000; AID 504454;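 active means response above a set limit, near 3 SD of response in nonfluorescent compounds, cut at about 42% in these data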;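 further: stock transfer was 100 nL into about 11 µL; a reference agonist was the positive control; negative values mostly stem from fluorescent compounds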
Target sequence (P07550 whole entry, looked up): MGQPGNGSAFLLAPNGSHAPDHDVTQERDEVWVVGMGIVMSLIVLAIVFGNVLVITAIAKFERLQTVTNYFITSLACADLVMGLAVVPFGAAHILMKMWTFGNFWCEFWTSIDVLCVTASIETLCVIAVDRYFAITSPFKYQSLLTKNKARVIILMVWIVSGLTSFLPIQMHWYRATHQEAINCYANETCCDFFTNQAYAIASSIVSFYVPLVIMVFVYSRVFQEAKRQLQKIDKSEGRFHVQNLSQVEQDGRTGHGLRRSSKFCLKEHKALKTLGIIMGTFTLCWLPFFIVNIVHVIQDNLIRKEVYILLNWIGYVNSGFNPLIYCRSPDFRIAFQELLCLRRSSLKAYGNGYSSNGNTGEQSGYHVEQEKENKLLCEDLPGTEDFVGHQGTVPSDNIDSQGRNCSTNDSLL
T cruzi inh = T. cruzi replication inhibition; T. cruzi beta-gal in NIH3T3, luminescence, 90 h; inhibition, % (test concentration not listed); hit rate 1.4% among 300,000;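 active means mean inhibition across valid replicates above about 55%, limit read from the data; inconclusive means mean below that limit but half or more replicates reach it; inactive means mean below it, under half of replicates reach it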;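 further: signal also drops with host cell toxicity which is not excluded here; 0% = plate median of DMSO wells and 100% = zero luminescence signal; higher percent means less beta-gal luminescence so fewer parasites; stock transfer was 50 nL into about 50 µL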
LANA-H2A inh = blocks KSHV LANA binding to histone H2A/H2B; hit rate 0.6% among 320,000; inhibition, % (concentration not given with the values); Q9QR71; cell-free LANA-H2A/H2B peptide, fluorescence polarization; in the data active means inhibition mostly above about 10%, no sharp cut-off; inactive means mostly below about 6.7%;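 further: stock transfer was 7.5 nL into about 10 µL; 0% = median of vehicle wells and 100% = median of positive control wells; one replicate is shown; the record names a cut of 25% in any replicate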
Ecoli rRNA inh OD600 = second read-out of Ecoli rRNA inh, no call of its own (marks repeat the call); OD600 change, %; measured here: OD600 growth;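 optical density of the mix in the first replicate; 0 = DMSO median and -100 = no signal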
Ecoli rRNA inh RFP = recorded beside Ecoli rRNA inh, whose call it bears; RFP signal change, %; measured here: RFP humanized mutant strains;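 first replicate; 0 = DMSO median and -100 = no signal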
Active calls of the source: *; u = inconclusive; x = no result given. Some of the compounds tested; rates above refer to the full screens.

SMILES | A1 inh | ALR H2O2 inh | Beta apoptosis | Calb FLC | Ecoli rRNA inh | Ecoli rRNA inh OD600 | Ecoli rRNA inh RFP | Beta2AR agonist | T cruzi inh | LANA-H2A inh
Cc1ccc(Cn2cccc(NC(=O)NC3CCCCC3)c2=O)cc1 | -0.2 | -16 | x | -15 | x | x | x | -5 | 2 | 1.3
COc1cc(NC(=O)C(C)Oc2ccccc2)ccc1NC(=O)COc1ccccc1 (configuration not stated) | 1.1 | -10 | -9 | 10 | -25 | -31 | -6.2 | 3 | 4 | 0.0
CCN(CC)CCCNC(=O)c1sc2ncn(CC(=O)Nc3ccc(C)c(Cl)c3)c(=O)c2c1C | 2.6 | -17 | -4 | 11 | 1 | -2 | 4.1 | 15 | 50 | 3.5
COc1cc(C2C(C#N)=C(C)NC3=C2C(=O)CC(C)(C)C3)cc(OC)c1O (configuration not stated) | 1.1 | 6 | -3 | 10 | 15 | -2 | 3.1 | 5 | 7 | -6.0
Cc1cc(C(=O)N2CCN(c3ccccc3)CC2)no1 | 0.5 | 49 | -3 | 1 | 19 | 18 | -5.1 | 5 | -24 | -3.2
CCC(C)(C)n1nnnc1C(c1ccc(C)cc1)N1CCCC1 (configuration not stated) | 1.2 | -3 | x | 10 | -1 | -1 | 0.4 | 0 | 19 | -5.0
CC1=C(c2ccc(C(C)C)cc2)S(=O)(=O)N=C1N1CCN(C(=O)c2ccco2)CC1 | 0.8 | -4 | -3 | -8 | -5 | -7 | 2.8 | 0 | 10 | 1.9
C#CCSc1nc(-c2cccs2)ccc1C#N | 0.0 | -16 | 4 | 3 | x | x | x | -3 | 23 | 10
CC(C)Cc1nc(SCC(=O)N2CCOCC2)c2c(=O)n(C)c(=O)n(C)c2n1 | -0.4 | 0 | 0 | 2 | 8 | 6 | -1.2 | 1 | 5 | -2.2
O=C(Nc1ccc(F)c(Cl)c1)c1cncs1 | -1.3 | -5 | x | -11 | -12 | -8 | -16 | 11 | -8 | -16
CC(=O)CN1C(=O)NC(c2ccccc2)(c2ccccc2)C1=O | 1.1 | -13 | x | 4 | 6 | 5 | 0.3 | -4 | 15 | 0.9
COc1ccc(S(=O)(=O)N2CC(O)CC2C(=O)OCC(=O)Nc2ccc(Cl)cn2)cc1 (configuration not stated) | 4.1 | 0 | 0 | -9 | x | x | x | -4 | -10 | 0.7
COc1cccc2c1OCC(C(=O)O)C2 (configuration not stated) | 0.1 | 2 | x | u | 13 | 5 | 3.4 | -2 | -8 | 4.2
Cn1c(=O)c2c(nc(NC3CCCC3)n2C)n(C)c1=O | -0.3 | 50 | 0 | -7 | 4 | 4 | 0.9 | 2 | -6 | 0.4
S=C(Nc1ccccc1)N1CCCCCCC1 | 0.1 | 8 | 8 | -6 | 9 | 11 | -2.7 | -4 | -19 | -2.4
O=C(CSc1ccccc1)NCc1ccccc1 | 0.3 | -14 | -9 | -4 | 0 | 3 | -0.1 | -3 | -8 | 4.6
CCSc1nnc(NC(=O)Cn2cnc3c2c(=O)n(C)c(=O)n3C)s1 | 0.2 | -2 | -6 | 9 | 14 | 8 | 4.1 | 2 | -7 | -10
CN1CC(=O)N(CCOc2ccccc2)C1=O | 0.5 | -1 | -12 | 4 | x | x | x | 1 | -12 | -6.4
Cc1ccc(CSc2nc3sc(C)c(C)c3c(=O)n2Cc2ccco2)cc1 | 0.4 | 97* | 2 | -13 | x | x | x | 5 | 24 | 1.0
O=C(Nc1ccc2c(c1)OCCO2)NC1CCCCC1 | -5.5 | -3 | 6 | -1 | x | x | x | -3 | 12 | -2.4
Cc1c(C)c2ccc(OC(C)C(=O)NC3CC(C)(C)NC(C)(C)C3)cc2oc1=O (configuration not stated) | 0.6 | -5 | x | -6 | 3 | 12 | -1.5 | -11 | 18 | -1.0
CCOCCCNC(=O)c1cn(CC(C)C)c(=O)c2c1c1ccccc1n2C | 1.6 | -17 | 3 | 7 | 14 | 9 | 2.1 | 2 | -7 | 2.1
CC(=O)Nc1ccc(C)c(NC(=S)Nc2ccc(F)cc2)c1 | -0.2 | x | -2 | 1 | 4 | 5 | -0.5 | 3 | -10 | -0.5
CCCCC(=O)NC(=S)Nc1ccccc1C(=O)Nc1ccccc1 | 0.0 | -5 | 5 | 22 | x | x | x | 2 | -16 | -1.7
COc1ccccc1NC(=O)/C(C#N)=C/c1cc([N+](=O)[O-])ccc1N1CCCC1 | -0.5 | -14 | 13 | 8 | x | x | x | -11 | 6 | 6.3
CC(=O)Nc1cccc(N2C(=O)CC(Cc3ccccc3)C2=O)c1 (configuration not stated) | 0.1 | -10 | -4 | -7 | x | x | x | 0 | -14 | -3.8
Cc1ccc(S(=O)(=O)c2nc(-c3cccs3)oc2NCCCN(C)C)cc1 | -0.6 | 52 | x | -11 | x | x | x | -6 | -1 | 2.9
O=C(COC(=O)C1CCN(S(=O)(=O)c2cccc3cccnc23)CC1)c1ccc(F)cc1 | -0.6 | x | -7 | 5 | x | x | x | 0 | 2 | 0.8
Cc1ccc2c(c1)CCCN2C(=O)c1c(C)noc1C | -0.4 | -9 | -1 | 11 | 3 | -5 | 0.0 | 3 | -2 | -1.3
O=C(NCCS(=O)(=O)N1CCN(c2ccccc2F)CC1)c1ccco1 | 1.3 | 0 | -1 | 0 | 6 | 1 | -1.4 | -1 | 4 | -1.0
CC1(C)CC(Cc2nc(=S)[nH][nH]2)C(=O)O1 (configuration not stated) | 1.2 | 54 | -4 | 16 | 14 | 11 | 6.2 | -5 | -16 | 5.1
O=C(O)C1C2C=CC(C2)C1C(=O)Nc1ccc(C(=O)N2CCCCC2)cc1 (configuration not stated) | 1.0 | -3 | x | x | x | x | x | 9 | x | 1.5
COCCNC(=O)C(c1ccc(C)cc1)N(C(=O)CCC(=O)Nc1ccccn1)c1ccc(C)cc1 (configuration not stated) | 0.3 | x | -5 | 1 | -1 | 6 | -0.3 | -7 | 14 | -5.1
N#Cc1c(/N=C/c2ccco2)oc(-c2ccccc2)c1-c1ccccc1 | -0.6 | 25 | -3 | 4 | x | x | x | 0 | -1 | 5.7
Cc1ccc2nc(-c3ccc(SCC(=O)Nc4nnc(C)s4)nc3)[nH]c2c1 | 0.3 | x | 51 | -8 | x | x | x | 4 | -11 | x
Cc1ccoc1C(=O)NCCNC(=O)c1occc1C | -0.8 | x | -8 | 6 | 14 | 6 | -1.3 | -3 | -4 | x
Cc1ccc(S(=O)(=O)N2CCCCC2)cc1NC(=O)C1CCC1 | 1.5 | -1 | 3 | x | 9 | 10 | -2.1 | 1 | x | 1.4
COc1ccccc1C(OC(=O)c1cccs1)C(=O)NCC1CCCO1 (configuration not stated) | 1.1 | -5 | x | -1 | x | x | x | -1 | -8 | 1.9
CC(=O)c1ccc(NC(=O)N2CCc3ccccc3C2)cc1 | -1.0 | 4 | -2 | -22 | -12 | -11 | -0.6 | 17 | -1 | -4.4
COc1ccc(N2CC(C(=O)Nc3nnc(C4CCCCC4)s3)CC2=O)cc1 (configuration not stated) | 0.2 | x | -3 | -14 | 6 | 11 | -0.3 | -4 | 2 | 8.4
c1ccc2c(c1)oc1c(NCCN3CCOCC3)ncnc12 | -0.1 | -12 | 1 | 5 | x | x | x | -4 | 8 | 0.8
Cc1ccc(Cl)c(NC(=O)COC(=O)c2nn(-c3ccccc3)cc2O)c1Cl | 0.9 | -1 | -1 | x | -3 | -33 | -0.7 | 5 | x | 17
COCCCNC(=O)C1CCN(C(=O)c2oc3cc4sc(N(C)C)nc4cc3c2C)CC1 | 1.3 | -10 | -6 | -4 | -7 | -2 | 0.2 | -4 | -11 | -4.1
Cc1ccc2cc(CN(CCCN(C)C)C(=O)NCc3ccccc3)c(=O)[nH]c2c1C | 0.6 | -4 | -10 | u | x | x | x | -1 | 52 | -1.6
O=C(COC(=O)c1c(F)cccc1Cl)NCC1CCCCC1 | -0.7 | x | -1 | x | -23 | -45 | 1.7 | -9 | x | 0.4
CC(C)c1ccc(N(CC(=O)NN=C2CCN(C)CC2)S(=O)(=O)c2ccccc2)cc1 | -0.2 | 18 | 0 | 3 | 7 | 1 | 1.5 | 1 | 9 | 3.1
Cc1ccccc1C(=O)NC(NCc1ccco1)C(Cl)(Cl)Cl (configuration not stated) | 0.0 | 18 | -1 | 8 | x | x | x | 3 | -6 | 3.2
O=C(/C=C/c1ccc(Cl)cc1)NC(=S)Nc1ccc(N2CCOCC2)c(Cl)c1 | 0.8 | 0 | -2 | 3 | x | x | x | 2 | -8 | -1.4
NS(=O)(=O)c1ccc(CCNC(=O)C2CCN(S(=O)(=O)c3ccccc3)CC2)cc1 | 2.8 | -3 | -4 | 28 | -4 | 3 | -1.5 | 2 | -4 | 2.5
O=c1cc(CN2CCN(S(=O)(=O)c3ccc4c(c3)OCCO4)CC2)c2ccc(O)cc2o1 | 0.0 | -2 | x | -3 | x | x | x | 3 | 10 | -2.1
Cc1[nH]c(C)c(S(=O)(=O)N2CCN(c3ccccc3F)CC2)c1C(=O)N1CCCCC1 | -0.8 | 2 | x | -6 | 2 | 2 | -4.0 | 1 | 0 | -0.7
COc1cc2ccccc2cc1C(=O)OCC(=O)c1c(N)n(C)c(=O)n(C)c1=O | 0.8 | -4 | 0 | x | -2 | 0 | 0.3 | 4 | x | -134
CC1=C(C#N)C(NC(=O)c2cccc(Cl)c2)(C(F)(F)F)C(=O)N1 (configuration not stated) | -0.2 | 1 | -1 | -5 | x | x | x | 5 | 7 | -0.1
CN(C)c1ccc(/C=C/C(=O)c2ccc(C(C)(C)C)cc2)cc1[N+](=O)[O-] | 0.5 | 12 | 6 | -3 | x | x | x | 2 | 35 | -1.7
CCCCn1c(=O)n(Cc2cccc(F)c2)c(=O)c2c1ncn2Cc1ccco1 | 0.2 | -7 | 6 | 7 | x | x | x | 2 | 37 | -1.6
CCCCn1c(SCC(=O)N2CCCCC2)nc2cc(S(N)(=O)=O)ccc21 | -0.4 | -8 | 1 | 25 | x | x | x | -9 | 6 | -2.7
CN(/N=C/c1ccc(O)cc1O)c1nc(-c2ccccc2)cc(-c2ccccc2)n1 | 0.0 | -5 | 4 | 18 | 30 | 20 | 2.3 | 5 | u | 1.5
O=C(Nc1cnn(Cc2ccc(Cl)c(Cl)c2)c1)c1nc2ncccn2n1 | -0.1 | -23 | 3 | 3 | x | x | x | -1 | 10 | -3.1
C=C(C)COc1ccc(-c2[nH]ncc2Oc2ccccc2OC)c(O)c1 | 0.7 | 30 | -6 | 10 | 7 | 4 | -2.5 | -1 | -11 | -6.0
COc1cc2c(=O)n(CCC(=O)NCC3CCCO3)c(=O)n(CC(=O)Nc3ccc(F)cc3)c2cc1OC (configuration not stated) | 0.3 | 0 | -1 | 0 | 3 | 11 | 1.9 | -8 | -1 | 1.5
COc1ccc(CC2(CO)CCN(Cc3cccn3-c3ccccn3)CC2)cc1 | 0.4 | -14 | 3 | -4 | 5 | -3 | -6.1 | -1 | 5 | 2.9
CCOC(=O)c1cc(N)cc([N+](=O)[O-])c1 | 1.2 | -2 | -3 | 39 | 3 | 6 | -4.5 | -2 | 0 | -0.2
